Compound activity as filed in PubChem BioAssay.
Vaccinia stage: blocks a specific stage of Vaccinia orthopoxvirus infection; 89,000 compounds, 0.01% hits; Vaccinia-infected cells, mCherry/Venus stage reporter fluorescence; active compounds read low; some inactives read as strong as hits; activity change (mCherry), % (no concentration beside the values); AID 1053133;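 active = mCherry past -33% and 40 or more points under the early reporter, replicates agreeing; inconclusive = past -33% without that gap or agreement; tested in A549 cells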;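 note: scaled between vehicle wells and reference inhibitor wells; 23 nL library stock went into each well; one replicate is shown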
Vaccinia stage Venus: further read-out of Vaccinia stage, marked with its call; activity change (Venus), %; measured here: Venus reporter, other viral stage;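 negative = less Venus signal; first of two replicates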
Starred values were filed as active, the others as inactive; ? = inconclusive; . = not tested or not shown; & = joins results of further samples. These rows are one share of the data; count on the stated rates, not on these rows.

Order of values: Vaccinia stage, Vaccinia stage Venus
- CC(C)c1cn(CC[C@@H]2CC[C@H](NC(=O)C3CCC3)[C@@H](CO)O2)nn1
    7, 5
- COc1ccccc1NC(=O)N(C)C[C@H]1OCc2cn(nn2)CCCC(=O)N([C@@H](C)CO)C[C@@H]1C
    4&8, -2&4
- O=C(C[C@H]1CC[C@@H](NC(=O)C2CCC2)[C@H](CO)O1)NC1CCC1
    -7, 4
- CC(C)NC(=O)Nc1ccc2c(c1)C(=O)N([C@@H](C)CO)C[C@H](C)[C@@H](CN(C)C(=O)NC1CCCCC1)OCCCC[C@H](C)O2
    -2, -9
- C[C@@H]1CN([C@@H](C)CO)C(=O)Cc2cc(NS(=O)(=O)c3ccccc3)ccc2O[C@@H]1CN(C)CC1CCCCC1
    -2, -1
- CN(C)C(=O)[C@H]1[C@H](CO)[C@H]2Cn3c(cccc3=O)[C@@H]1N2CC1CC1
    4, 0
- C[C@H](CO)N1C[C@H](C)[C@@H](CN(C)C(=O)c2ccccn2)Oc2cc(C#Cc3ccc(F)cc3)ccc2S1(=O)=O
    ?, .
- O=C(Cc1ccccc1)N1CC[C@H]2[C@H](CO)Nc3ccc(C#Cc4cccc(F)c4)cc3[C@H]21
    ?, .
- C[C@@H]1CN([C@H](C)CO)C(=O)c2cc(NS(=O)(=O)c3ccc(F)cc3)ccc2O[C@@H]1CN(C)C(=O)Nc1ccccc1
    8, 8
- Cc1ccccc1-c1ccc(C2[C@H]3CNC[C@@H]2N3C(=O)Nc2ccc(F)cc2)cc1 (stereo partly drawn)
    -1&-8, -1&-7
- CO[C@@H]1CN(C)C(=O)c2ccc(NC(=O)C3CC3)cc2OC[C@@H](C)N(C(C)=O)C[C@@H]1C
    0, -1
- C[C@@H]1CN([C@@H](C)CO)S(=O)(=O)c2ccc(C3=CCCCC3)cc2O[C@@H]1CN(C)Cc1ccncc1
    ?, .
- C[C@@H]1CN([C@H](C)CO)C(=O)c2cc(C#CC3CC3)cnc2O[C@@H]1CN(C)Cc1ccccc1C(=O)O
    13, 6
- CO[C@@H]1CN(C)C(=O)c2cc(NC(=O)c3ccccc3)ccc2OC[C@H](C)NC[C@H]1C
    1, -5
- CC(=O)N(C)C[C@@H]1Oc2ncc(-c3ccc(C)cc3)cc2C(=O)N([C@@H](C)CO)C[C@H]1C
    4, -3
- CCCC#Cc1ccc2c(c1)[C@@H]1[C@@H](CCN1S(=O)(=O)c1ccccc1C)[C@@H](CO)N2
    1, 1
- C[C@@H]1CN([C@H](C)CO)S(=O)(=O)c2ccc(C#CC3CC3)cc2O[C@@H]1CN(C)C(=O)C1CCC1
    -11, -12
- C[C@@H]1CN([C@@H](C)CO)C(=O)c2cc(-c3ccccc3)cnc2O[C@H]1CN(C)C(=O)Cc1ccccn1
    26, 0
- CO[C@H]1CN(C)C(=O)c2ccc(NS(=O)(=O)c3ccc(C)cc3)cc2OC[C@H](C)N(C)C[C@@H]1C
    -2, 2
- CN1C(=O)c2cc(NC(=O)C3CC3)ccc2OC[C@@H]2O[C@H](CC(=O)NCCc3ccncc3)CC[C@H]21
    4, 7
- O=C(N[C@@H]1CC[C@@H](CCNS(=O)(=O)c2ccccc2)O[C@@H]1CO)c1cccnc1
    -4, -2
- CCCC(=O)Nc1ccc2c(c1)C(=O)N(C)[C@@H]1CC[C@H](CC(=O)NCc3ccccc3Cl)O[C@@H]1CO2
    -4, -5
- Cc1ccc(N2C(=O)c3ccccc3[C@](C)(C(=O)O)[C@@H]2c2ccc(CO)cc2)nc1
    0, -3
- COc1cccc(CN2CC3(CN(CC4CC4)C3)c3c([nH]c4cc(OC)ccc34)[C@H]2CO)c1
    -2, 6
- C[C@H]1CN([C@@H](C)CO)C(=O)c2cc(NS(=O)(=O)c3ccc(Cl)cc3)ccc2O[C@@H]1CN(C)C(=O)Nc1cccc2ccccc12
    45, 26
- O=C(C1=C[C@@H](c2ccccc2)C[C@@H](OCCCCO)O1)N1CCN(Cc2ccc3c(c2)OCO3)CC1
    5, 4
- COc1ccc(S(=O)(=O)N(C)C[C@@H]2Oc3ccc(NS(=O)(=O)c4c(C)noc4C)cc3C(=O)N([C@@H](C)CO)C[C@@H]2C)cc1
    11, 5
- COc1ccc(NC(=O)N(C)C[C@@H]2Oc3ccc(NC(=O)C4CCCCC4)cc3CC(=O)N([C@H](C)CO)C[C@H]2C)cc1
    18, 11
- C[C@H](CO)N1C[C@H](C)[C@@H](CN(C)Cc2ccccn2)Oc2ncc(C#CC3CC3)cc2C1=O
    11, 9
- COc1ccc(S(=O)(=O)Nc2ccc3c(c2)CC(=O)N([C@H](C)CO)C[C@@H](C)[C@@H](CN(C)Cc2ccccc2)O3)cc1
    -14, -6

3 structures out of the list, arranged by heavy-atom count, lowest first.
Order of values: Vaccinia stage, Vaccinia stage Venus
- C[C@H](CO)N1C[C@H](C)[C@@H](CN(C)Cc2ccccn2)Oc2ncc(C#CC3CC3)cc2C1=O
    11, 9
- COc1ccccc1NC(=O)N(C)C[C@H]1OCc2cn(nn2)CCCC(=O)N([C@@H](C)CO)C[C@@H]1C
    4&8, -2&4
- COc1ccc(NC(=O)N(C)C[C@@H]2Oc3ccc(NC(=O)C4CCCCC4)cc3CC(=O)N([C@H](C)CO)C[C@H]2C)cc1
    18, 11

Next entries:
Order of values: Vaccinia stage, Vaccinia stage Venus
- CO[C@H]1CN(C)C(=O)c2ccc(NC(=O)NC(C)C)cc2OC[C@H](C)N(CCC(F)(F)F)C[C@H]1C
    -7, -4
- CCCC(=O)N1CCC2(CC1)CN(C(=O)CC)[C@@H](CO)c1c2c2ccc(OC)cc2n1C
    -1, -1
- C[C@@H]1CN([C@@H](C)CO)S(=O)(=O)c2ccc(-c3cccc(C#N)c3)cc2O[C@@H]1CN(C)CC1CC1
    -8, -3
- CCCN(C)C[C@@H]1OCCCC[C@@H](C)Oc2ccc(NS(=O)(=O)c3ccc(F)cc3)cc2C(=O)N([C@@H](C)CO)C[C@@H]1C
    -14, -1
- C[C@H](CO)N1C[C@H](C)[C@H](CN(C)C(=O)c2ccccc2)OCCCC[C@H](C)Oc2ccc(NS(=O)(=O)c3cccs3)cc2C1=O
    -4, -4
- O=C(NC1CCCCC1)N1CC(=O)N2[C@H](CO)[C@H](c3ccc(/C=C/c4ccccc4)cc3)[C@H]2C1
    ?, .
- O=C(C1CCC1)N1CC[C@H]2[C@H](CO)Nc3ccc(Br)cc3[C@H]21
    -8, -11
- CC(C)CC#Cc1ccc2c(c1)O[C@H](CN(C)Cc1cccnc1)[C@@H](C)CN([C@H](C)CO)S2(=O)=O
    ?, .
- CCCNC(=O)N(C)C[C@@H]1Oc2ncc(Br)cc2C(=O)N([C@@H](C)CO)C[C@H]1C
    22, 6
- C[C@H]1CN([C@@H](C)CO)C(=O)c2cc(NC(=O)Cc3ccccc3)ccc2O[C@H]1CN(C)C(=O)NC1CCCCC1
    11, 14
- CCCNC(=O)C[C@@H]1CC[C@@H]2[C@H](COc3ccc(NC(=O)CCC)cc3C(=O)N2C)O1
    4, 2
- CN(C)CC(=O)Nc1ccc2c(c1)[C@H]1C[C@H](CC(=O)N(C)C)O[C@H](CO)[C@H]1O2
    7, 8
- C[C@@H]1CN([C@@H](C)CO)C(=O)c2cccc(NC(=O)c3cnccn3)c2O[C@@H]1CN(C)C(=O)Nc1ccc(C(F)(F)F)cc1
    -18, -10
- C[C@H]1CN([C@@H](C)CO)C(=O)c2c(c3ccccc3n2C)-c2ccccc2CO[C@@H]1CN(C)C(=O)Nc1ccccc1
    -5, -33
- COc1ccc(S(=O)(=O)N(C)C[C@@H]2Oc3ccc(N(C)C)cc3CC(=O)N([C@@H](C)CO)C[C@H]2C)cc1
    9, 12
- CCCNC(=O)Nc1ccc2c(c1)OC[C@@H](C)N(Cc1cncnc1)C[C@@H](C)[C@H](OC)CN(C)C2=O
    10, 13
- C[C@@H]1CCCCO[C@H](CN(C)S(=O)(=O)c2cccs2)[C@H](C)CN([C@@H](C)CO)C(=O)c2cc(NC(=O)Nc3ccc4c(c3)OCO4)ccc2O1
    9, 8
- O=C(NCc1cc(F)cc(F)c1)[C@H]1[C@H](CO)[C@H]2Cn3c(cccc3=O)[C@@H]1N2
    6, 4
- Cc1noc(C)c1NC(=O)Nc1ccc2c(c1)C(=O)N([C@@H](C)CO)C[C@@H](C)[C@H](CN(C)C(=O)Nc1ccc3c(c1)OCO3)O2
    8, 6
- C[C@H](CO)N1C[C@H](C)[C@@H](CN(C)C(=O)Nc2ccc(C(F)(F)F)cc2)OCCCC[C@H](C)Oc2ccc(NS(=O)(=O)c3cn(C)cn3)cc2C1=O
    0, -6
- O=C(NCc1ccccc1)[C@@]1(Cc2ccccc2)N=C(c2ccc(OCCCO)cc2)O[C@H]1c1ccccc1
    ?, .
- CCNC(=O)C[C@H]1CC[C@@H]2[C@H](COc3ccc(NC(=O)Nc4ccccc4F)cc3C(=O)N2C)O1
    7, 6
- C[C@@H]1CN([C@H](C)CO)C(=O)c2cc(NC(=O)Nc3ccc(C(F)(F)F)cc3)ccc2O[C@@H]1CN(C)C(=O)Nc1ccccc1
    -26, -25
- O=C(Nc1cccc(F)c1)N1CCCCN2[C@H](CO)[C@H](c3ccc(-c4ccncc4)cc3)[C@H]2C1
    -15, -15
- CCCC(=O)Nc1ccc2c(c1)C(=O)N(C)C[C@@H](OC)[C@H](C)CN(C(=O)CN1CCOCC1)[C@H](C)CO2
    10, 9
- CCCc1cn(CC[C@H]2CC[C@H](NS(=O)(=O)c3ccccc3Cl)[C@@H](CO)O2)nn1
    11, 13
- C[C@H](CO)N1C[C@H](C)[C@@H](CN(C)Cc2ccc3c(c2)OCCN3C)OCc2cnnn2CCCC1=O
    11, 2
- COc1ccc(S(=O)(=O)N(C)C[C@@H]2Oc3ccc(NS(=O)(=O)c4ccc(C)cc4)cc3C(=O)N([C@@H](C)CO)C[C@@H]2C)cc1
    3, 18
- CCCC#Cc1ccc2c(c1)O[C@@H](CN(C)C(=O)C1CCC1)[C@H](C)CN([C@H](C)CO)S2(=O)=O
    -28, -21
- C[C@@H]1CN([C@H](C)CO)S(=O)(=O)c2ccc(C#Cc3cccc(F)c3)cc2O[C@H]1CN(C)S(=O)(=O)c1cn(C)cn1
    ?, .

A different layout for 4 compounds above.
O=C(C1CCC1)N1CC[C@H]2[C@H](CO)Nc3ccc(Br)cc3[C@H]21
- Vaccinia stage = -8
- Vaccinia stage Venus = -11
CN(C)CC(=O)Nc1ccc2c(c1)[C@H]1C[C@H](CC(=O)N(C)C)O[C@H](CO)[C@H]1O2
- Vaccinia stage = 7
- Vaccinia stage Venus = 8
O=C(NC1CCCCC1)N1CC(=O)N2[C@H](CO)[C@H](c3ccc(/C=C/c4ccccc4)cc3)[C@H]2C1
- Vaccinia stage = ?
- Vaccinia stage Venus = .
CCCN(C)C[C@@H]1OCCCC[C@@H](C)Oc2ccc(NS(=O)(=O)c3ccc(F)cc3)cc2C(=O)N([C@@H](C)CO)C[C@@H]1C
- Vaccinia stage = -14
- Vaccinia stage Venus = -1

(listing goes on)
Order of values: Vaccinia stage, Vaccinia stage Venus
- C[C@@H]1CN([C@@H](C)CO)C(=O)c2cc(-c3ccc(F)cc3)cnc2O[C@H]1CN(C)CC1CCOCC1
    2, 3
- C/C=C/[C@@H](CCn1cc(CCO)nn1)[Si](C)(C)c1ccc(OC)cc1
    -19, -23
- O=C(C[C@H]1CC[C@@H](NS(=O)(=O)c2cccc(F)c2)[C@@H](CO)O1)NCc1ccc2c(c1)OCO2
    7, -3
- O=C(C1CCC1)N1CC[C@@H]2[C@@H](CO)Nc3ccc(Br)cc3[C@@H]21
    -10, -9
- CCO[C@@H]1OC(C(=O)NC2CC2)=C[C@H](c2ccc(C(F)(F)F)cc2)[C@H]1CCCO
    1, 0
- C[C@@H]1CCCCO[C@@H](CN(C)CC2CC2)[C@H](C)CN([C@@H](C)CO)C(=O)c2cc(NC(=O)CCC(F)(F)F)ccc2O1
    ?, .
- C[C@@H]1CN([C@@H](C)CO)C(=O)Cc2cc(NC(=O)C3CCCCC3)ccc2O[C@@H]1CN(C)S(=O)(=O)c1ccc(F)cc1
    0, -3
- C[C@H](CO)N1C[C@H](C)[C@H](CN(C)S(=O)(=O)c2ccc(C#N)cc2)Oc2ncc(-c3cccc(C(F)(F)F)c3)cc2C1=O
    -1, -2
- CCNC(=O)[C@@H]1[C@@H](CO)[C@@H]2Cn3c(ccc(/C=C/c4ccccc4)c3=O)[C@H]1N2C(=O)C1CCCC1
    15, 6
- COc1cccc(-c2ccc3c(c2)O[C@@H](CN(C)C(=O)C2CCC2)[C@H](C)CN([C@@H](C)CO)S3(=O)=O)c1
    -25, -19
- N#C[C@@H]1[C@H](c2ccc(C3=CCCCC3)cc2)[C@@H](CO)N1C(=O)c1ccccn1
    4, 11
- COc1ccc(CN2CC3(CCN(C(=O)c4ccccc4)CC3)c3c([nH]c4cc(OC)ccc34)[C@@H]2CO)cc1
    -5, 1
- CN1CCN(C(=O)C[C@@H]2C[C@@H]3c4cc(NC(=O)CC5CC5)ccc4O[C@@H]3[C@@H](CO)O2)CC1
    11, 11
- C[C@H](CO)N1C[C@H](C)[C@@H](CN(C)C(=O)c2ccccc2F)Oc2ncc(C#Cc3ccccc3)cc2C1=O
    -22, -23
- O=C(C1CCCCC1)N1C[C@@H]2[C@H](c3ccccc31)[C@H](CO)N2CC1CCOCC1
    -4, -5
- CN1C(=O)c2cc(NS(=O)(=O)c3ccc(Cl)cc3)ccc2OC[C@@H]2O[C@H](CC(=O)N3CCc4ccccc4C3)CC[C@@H]21
    ?, .
- O=C(C[C@@H]1CC[C@H](NC(=O)Nc2ccc(C(F)(F)F)cc2)[C@H](CO)O1)NCc1ccccn1
    -19, -3
